# Bioassay records: PubChem, ICCB-Longwood Screening Facility, Harvard Medical School
# MbtI inh = inhibitors of Mycobacterium tuberculosis siderophore enzyme MbtI. P9WFX0. inhibition, %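 (about 17 µg/mL by stock and volumes)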. purified MbtI enzyme, fluorescence intensity read-out. actives 0.89% (n = 100,000);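 active = above 50% in both replicates, above 80% if mildly self-fluorescent; inactive = the rest, strongly fluorescent compounds included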;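 note: 0% = mean of negative and 100% = mean of positive controls; one replicate is shown; some compounds called inactive have numbers as strong as hits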
# PV pol inh = inhibitors of poliovirus RNA polymerase binding and polymerization. P03300. actives 0.66% (n = 150,000). % elongation, % (compound at 16.7 µg/mL). poliovirus polymerase elongation, fluorescence polarization; stronger effect = lower value; in the data active = % elongation below about 90%; note: some results filed as inactive read as strong as hits
# Target sequence (P03300 1749-2209 limits assumed): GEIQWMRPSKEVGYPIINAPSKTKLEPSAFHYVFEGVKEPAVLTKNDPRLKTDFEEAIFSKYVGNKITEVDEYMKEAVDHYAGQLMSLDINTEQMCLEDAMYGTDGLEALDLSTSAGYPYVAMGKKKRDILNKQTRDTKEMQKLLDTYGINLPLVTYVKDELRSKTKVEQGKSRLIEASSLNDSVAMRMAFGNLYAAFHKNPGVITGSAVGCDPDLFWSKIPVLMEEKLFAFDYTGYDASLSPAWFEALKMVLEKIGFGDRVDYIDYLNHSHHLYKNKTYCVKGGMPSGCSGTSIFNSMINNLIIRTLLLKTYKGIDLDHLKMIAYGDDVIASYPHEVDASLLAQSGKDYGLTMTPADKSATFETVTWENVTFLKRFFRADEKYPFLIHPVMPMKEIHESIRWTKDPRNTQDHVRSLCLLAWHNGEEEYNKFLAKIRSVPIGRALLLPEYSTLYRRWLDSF
# MenB inh = Mtb MenB enzyme inhibition; MenB enzyme assay, absorbance read-out; some hits fall short of the stated cut; AID 540299; inhibition, %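 (about 12 µg/mL by stock and volumes)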; actives 0.43% (n = 100,000); P9WNP5;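 active = mean of two replicates above 30%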;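 note: 0% = no compound and 100% = wells with inactive enzyme; the first replicate is given; strong numbers were not always called active; inactives centre near -10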
# Target sequence (P9WNP5 whole entry, looked up): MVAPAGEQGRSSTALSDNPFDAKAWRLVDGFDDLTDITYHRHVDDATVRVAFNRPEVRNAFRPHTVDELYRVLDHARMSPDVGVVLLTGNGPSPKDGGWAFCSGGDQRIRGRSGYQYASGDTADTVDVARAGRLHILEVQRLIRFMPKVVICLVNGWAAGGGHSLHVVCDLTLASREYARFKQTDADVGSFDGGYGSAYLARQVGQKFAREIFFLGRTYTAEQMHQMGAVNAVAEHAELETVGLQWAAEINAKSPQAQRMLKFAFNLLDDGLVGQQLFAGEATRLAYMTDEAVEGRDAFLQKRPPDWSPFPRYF
# PV pol inh intensity = recorded beside PV pol inh, whose call it bears; % elongation; measured here: total intensity read-out; formula for this scale not given here;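 total fluorescence in place of polarization; lower means less elongation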
# * = called active by the depositor; x = not tested or not shown; & = joins results of further samples.
mol	MbtI inh	PV pol inh	PV pol inh intensity	MenB inh
Cc1cc(I)ccc1N	2	102	100	12
COc1ccc(OCC2c3cc(OC)c(OC)cc3CCN2C(=O)Nc2ccc(Cl)cc2)cc1 (configuration not stated)	2	102	105	-3
O=C(Nc1cc(C(F)(F)F)ccc1-n1cncn1)c1ccc(Cl)cc1	-2	99	86	x
O=C(NC1CC1)c1ccc2c(c1)N(Cc1ccccc1)CCS2	21	99	100	-7
COC(=O)C1C2C=CC3(CN(c4ccc(OC)cc4)C(=O)C13)O2 (configuration not stated)	-6	104	104	-3
COc1ccc(NC(=O)C(C)C2SC(=O)NC2=O)cc1 (configuration not stated)	0	103	109	26
O=C(CCS(=O)(=O)Cc1ccccc1)N1CCc2ccccc21	-13	101	103	-8
NC(=O)C1CCCN1Cc1nc(N)nc(Nc2ccccc2)n1 (configuration not stated)	-1	109	119	-10
CN(C)CCc1c[nH]c2ccc(C[C@H]3COC(=O)N3)cc12	-4	99	101	2
O=C(OCc1ccccc1)c1ccc2ccccc2n1	-6	102	105	x
COC(=O)C1=CN(C(C(=O)OC)c2ccccc2)C=C(C(=O)OC)C1c1ccc(F)cc1 (configuration not stated)	61	103	107	-15
CCOc1ccc(CCNC(=O)C2CCN(c3nnc(-n4cccc4)s3)CC2)cc1	-5	105	103	-32
CCCOc1ccc(C(=O)Nc2nonc2C)cc1	-9	102	102	-5
CCOc1ccc2nc(C34CC5CC(CC(C5)C3)C4)ccc2c1	-1	101	98	11
CCCCc1ccc(NC(=O)/C=C2\SC(=O)NC2=O)cc1	4	x	x	-17
CCOC(=O)c1cc(-c2ccccc2)nc2nc(N3CCCC3)sc12	-11	101	103	-21
COc1cc(C2=NOC(C(=O)N3CCCc4ccccc43)C2)cc(OC)c1OC (configuration not stated)	-10	104	96	-27
Cc1cc(C)c(C#N)c(N2CCCC2)n1	-56	100	103	8
CCn1c(C(=O)NCc2ccc(OC)cc2)cc2sccc21	-5	103	106	3
CNC(=S)Nc1ccc(N2CCOCC2)cc1	-2	107	102	-33
CCc1ccccc1NC(=O)c1cccc(NC(=O)/C=C/c2ccco2)c1	35	100	104	-15
CNc1nc2ccccn2c(=O)c1/C=C1\SC(=S)N(C)C1=O	18	122	168	-22
O=C(Cc1ccsc1)Oc1ccc2c(c1)OCO2	-1	99	103	2
CCC(=O)N(Cc1ccc(S(N)(=O)=O)cc1)C1CC(=O)N(c2ccccc2)C1=O (configuration not stated)	-10	103	104	-19
CCOc1cc(S(=O)(=O)NC2CC2)c(OCC)cc1-n1cnnn1	89	103	104	-25
COc1ccc(NC2C=CS(=O)(=O)C2)cc1 (configuration not stated)	-13	101	103	x
COC(=O)c1ccccc1NC(=O)c1ccc2c(c1)OCO2	x	103	97	-14
O=CN1CCN(C(=O)COc2ccc(Br)cc2)CC1	-7	102	102	0
O=C(CN1C(=O)c2ccccc2S1(=O)=O)N1N=C2/C(=C/c3ccco3)CCCC2C1c1ccco1 (configuration not stated)	0	105	108	-26
Cc1cc(N(C)S(=O)(=O)c2ccc(N)cc2)nc(C)n1	1	102	100	-10
CC(C)C/C(=N/O)c1c[nH]c2ccccc12	6	103	103	1
C/C(C=Nc1ccccc1)=C\Nc1ccccc1	4	99	100	x
CCCS(=O)(=O)Nc1ccc(N2CCN(c3ccc(C(F)(F)F)cn3)CC2)nc1	-44	101	105	0
Cc1c(C)[n+](=O)c2c(n1[O-])CCCCC2	17	102	102	-16
CN(C(=O)c1ccc(S(=O)(=O)N2CCCC2)cc1)c1ccccc1	-14	105	107	x
Cc1nc2scc(-c3cccs3)c2c(=O)o1	0	98	99	17
COc1ccc(CNC(=O)NC2CCCCC2)cc1	-15	101	103	-17
S=c1[nH]c(-c2ccccc2)cn1-c1ccccc1	28	101	103	3
N#CCc1nc(-c2ccc(-c3ccccc3)cc2)cs1	4	103	104	x
NC(=S)NCc1ccccc1	10	103	99	3
CCOC(=O)N1CCN(C(=O)c2cn(CC)c3ccc(S(=O)(=O)N4CCCCC4)cc3c2=O)CC1	2	101	104	5
CSc1cccc(N=C2C(=O)Nc3ccccc32)c1	18	100	102	-80
COC(=O)c1c(COC(=O)/C=C/c2ccc(Br)o2)nc2ccccc2c1C	93	114	131	-29
CCN(CC)C(=O)CSc1nc2cc3c(cc2c(=O)n1CCCC(=O)NCCc1ccc(OC)c(OC)c1)OCO3	-7	100	102	-1
Cc1cccc(CC(=O)NC2CCCC2)c1	11	102	102	-22

# The closing 3 compounds of the section before are carried over, then new ones follow.
mol	MbtI inh	PV pol inh	PV pol inh intensity	MenB inh
COC(=O)c1c(COC(=O)/C=C/c2ccc(Br)o2)nc2ccccc2c1C	93	114	131	-29
CCN(CC)C(=O)CSc1nc2cc3c(cc2c(=O)n1CCCC(=O)NCCc1ccc(OC)c(OC)c1)OCO3	-7	100	102	-1
Cc1cccc(CC(=O)NC2CCCC2)c1	11	102	102	-22
CCN1CCN(CCC(=O)Nc2ccc(F)cc2)CC1	4	99	104	-1
O=C(c1cnn(C(=O)CN2C(=O)COc3ccccc32)c1)c1ccccc1O	-1	100	98	-16
NNC(=O)CC(=O)NC1(Cc2ccc(O)cc2)CCCCC1	x	103	107	-7
O=C(COC(=O)c1cc(-c2ccc(F)cc2)nc2ccccc12)Nc1ccccc1F	20	102	107	x
CS/C(NC1CCCCC1)=C(/C#N)S(=O)(=O)c1ccc(Cl)cc1	8	104	103	-5
CC(Sc1nc2ccccc2c(=O)n1Cc1ccco1)C(=O)Nc1ccc2c(c1)OCCO2 (configuration not stated)	-6	104	108	-23
CC(Oc1ccccc1)C(=O)N1CCCc2ccccc21 (configuration not stated)	x	105	97	-9
COc1cc2c(cc1OC)[C@@H](Cc1ccc(O)cc1)N(C)CC2	x	107	108	-13
Cc1ccc(Cl)cc1NC(=O)c1ccc(Br)o1	2	99	102	4
O=C(Cc1ccccc1)NC1CCN(C(=O)C2CCCCC2)CC1	-5	101	102	2
CCc1cccc2c(C#N)cn(CC(=O)NCCOC)c12	2	102	101	5
Cc1ccc(CSCC(=O)N2CCN(Cc3ccc4c(c3)OCO4)CC2)cc1	-6	104	102	-30
CN(C)/N=C/c1ccc(/C=N/N(C)C)o1	5	105	108	-61
CCC(C)NC(=O)c1nc2c(nnn2Cc2ccccc2Cl)c(=O)[nH]1 (configuration not stated)	-1	104	102	-12
Cc1ccc(S(=O)(=O)N2c3ccccc3OC2c2ccc(Cl)c(Cl)c2)cc1 (configuration not stated)	-2	108	93	-4

# The list goes on; it opens with the 6 that closed the last part.
mol	MbtI inh	PV pol inh	PV pol inh intensity	MenB inh
O=C(Cc1ccccc1)NC1CCN(C(=O)C2CCCCC2)CC1	-5	101	102	2
CCc1cccc2c(C#N)cn(CC(=O)NCCOC)c12	2	102	101	5
Cc1ccc(CSCC(=O)N2CCN(Cc3ccc4c(c3)OCO4)CC2)cc1	-6	104	102	-30
CN(C)/N=C/c1ccc(/C=N/N(C)C)o1	5	105	108	-61
CCC(C)NC(=O)c1nc2c(nnn2Cc2ccccc2Cl)c(=O)[nH]1 (configuration not stated)	-1	104	102	-12
Cc1ccc(S(=O)(=O)N2c3ccccc3OC2c2ccc(Cl)c(Cl)c2)cc1 (configuration not stated)	-2	108	93	-4
CC(C)(C)C(=O)CS(=O)(=O)c1ccc(Cl)cc1	5	106	108	-22
O=C(C1CCCN(S(=O)(=O)N2CCCCCC2)C1)N1CCN(c2cccc(C(F)(F)F)c2)CC1 (configuration not stated)	-20	101	103	-9
CCC(C)NC(N)=O (configuration not stated)	10	102	101	-13
O=C1CC(c2ccc(S(=O)(=O)NCc3ccncc3)cc2)CN1 (configuration not stated)	x	106	109	-18
O=C(/C=C/c1nnc2c3ccccc3cnn12)OCc1nnc(-c2cc3c(s2)CCCC3)o1	-6	102	102	5
C=CCNc1nc(C(=O)OCC(=O)c2ccc[nH]2)cs1	10	105	99	-30
CCCc1nnc(CSc2nc3ccccc3o2)o1	29	99	99	8
COc1cc(/C=N/NC(=O)c2cc(C3CC3)[nH]n2)ccc1O	15	103	100	-22
Cc1ccc(C(C)(C)CCN2CCCN(C)CC2)o1	52	99	104	-16
Cc1sc2c(c1C)c(=O)nc1n2C(CSc2nc3sc4c(c3c(=O)[nH]2)CCCC4)CS1 (configuration not stated)	3	100	104	-9
Cc1cccc2c(=O)cc(C)n(CC(=O)N3CCCCC3)c12	116	104	101	-2
Cc1ccc(-n2nc(C)c3c(C)cc(=O)n(CC(=O)NCc4ccco4)c32)cc1	-25	99	102	-2
O=C(NCc1ccccn1)c1cc2c(Cl)ccc3c2n1CCO3	22	102	106	-15
c1ccc(Nc2csc(N=C3CCCCC3)n2)cc1	10	100	101	x
O=C(CSc1nnnn1C1CCCC1)NCc1cccs1	-11	102	99	-20

# 7 entries picked at random from the list so far, as already listed:
mol	MbtI inh	PV pol inh	PV pol inh intensity	MenB inh
CC(C)C/C(=N/O)c1c[nH]c2ccccc12	6	103	103	1
Cc1ccc(C(C)(C)CCN2CCCN(C)CC2)o1	52	99	104	-16
Cc1nc2scc(-c3cccs3)c2c(=O)o1	0	98	99	17
CC(Oc1ccccc1)C(=O)N1CCCc2ccccc21 (configuration not stated)	x	105	97	-9
Cc1ccc(Cl)cc1NC(=O)c1ccc(Br)o1	2	99	102	4
CCc1cccc2c(C#N)cn(CC(=O)NCCOC)c12	2	102	101	5
NC(=O)C1CCCN1Cc1nc(N)nc(Nc2ccccc2)n1 (configuration not stated)	-1	109	119	-10

# Following part:
mol	MbtI inh	PV pol inh	PV pol inh intensity	MenB inh
CCc1ccc(/C=C2\Cc3ccccc3C2=O)cc1	2	99	100	-12
O=C(O)c1cc(N(Cc2ccccc2O)Cc2cc(O)ccc2O)ccc1O	105	103&101	101&100	9
c1ccc(C(Nc2nccs2)c2ccccc2)cc1	-5	103	107	x
COC(=O)C1CN(Cc2csc(NC(C)=O)n2)c2ccccc2O1 (configuration not stated)	-5	101	107	-18
CCN(CC)CC(O)Cn1c2c(c3cc(C)ccc31)CCCC2=O (configuration not stated)	53	100	100	-3
c1ccc(-c2nnsc2-c2nc3ccccc3[nH]2)cc1	6	101	100	x
CS(=O)(=O)c1ccc(-c2nnn(CC(=O)NC3CCCC3)n2)cc1	-7	100	101	-4
Cc1nn(-c2ccccn2)c2c1C1C(C2)C1(C)C (configuration not stated)	x	99	105	-11
CCc1cc(C(=O)COc2ccc3ccccc3c2)c(O)cc1O	-9	101	107	x
COc1ccc(-c2csc(C3=C(O)CN(CCCN4CCOCC4)C3=N)n2)cc1OC	0	98	96	-5
O=C1c2ccccc2-c2c(-c3ccccc3)nc3ccccc3c21	-12	101	104	-33
Cc1ccnc2nc(NC(=O)c3cccnc3)nn12	-8	101	102	5
Cc1cc(C)c2c(C)c(C(=O)NN)sc2n1	2	113	117	-9
CCN1CCN(C(=S)N[P+](c2ccccc2)(N(CC)CC)N(CC)CC)CC1	-7	100	106	-18
O=C(NCc1cccc(Cl)c1)c1ccc(CS(=O)Cc2ccc(Cl)cc2)o1 (configuration not stated)	-7	99	102	4
CC(=O)N(CCc1ccccc1)CC1C(Oc2ccc(Cl)cc2)C(=O)N1c1ccccc1C (configuration not stated)	4	104	104	-21
COc1ccc2c(c1)C(=O)N(c1ccc(C)cc1C)C(=O)/C2=C/N1CCOCC1	13	99	113	-49
CCSc1cccc2cccnc12	x	101	96	-15
CN(Cc1ccc(-c2ccc(Br)cc2)o1)C(=O)c1cccs1	13	103	103	-17
CC1(C(=O)Nc2ccc(NC(=O)C3(C)CCCC3)cc2)CCCC1	-7	104	104	x
COC(=O)c1sc(C(C)(C)C)cc1CS(=O)(=O)c1cc(C)c(Cl)cc1C	-3	105	115	-11
Cn1ccnc1C(=O)c1cccnc1	12	101	96	x
COc1cccc(C(=O)Nc2cnn(CCCC(=O)O)c2)c1	1	102	102	-1
CCCC(=O)N1CCC2(CC1)OCCO2	-5	101	102	-8
Cc1cc(C)nc(N2CCN(c3ccccn3)CC2)n1	-61	100	102	18
Cc1ccc(S(=O)(=O)N2CCN(Cc3cc(=O)n4ccccc4n3)CC2)c(C)c1	12	100	104	2
COc1ccccc1C(C)NC(=O)c1cccc(OC(F)F)c1 (configuration not stated)	-14	103	105	-8
CN(C)C(CN=C1NS(=O)(=O)c2ccccc21)c1ccccc1 (configuration not stated)	-10	104	101	-18
CCc1nc(-n2nnc3cc(C)c(C)cc32)c2c3c(sc2n1)CCCC3	-5	104	104	-9
CCOC(=O)Nc1nc2c(ccc3ccccc32)s1	-7	102	101	-19
CCOC(=O)/C(C#N)=C\c1ccc(N(C)C)cc1	-2	107	112	-136
NNc1ncc(Cl)cc1Cl	34	100	101	16
CC(C1CC1)N(CC(F)(F)F)C(=O)c1cnc2ccccc2n1 (configuration not stated)	5	98	103	9
O=C(Cn1cnc2c(oc3ccccc32)c1=O)N1CCCSC1=Nc1ccccc1Cl	-3	102	104	-38
